Screens as filed in PubChem.
KAT2A inh = blocks human GCN5L2 histone acetyltransferase. Q92830. GCN5L2 HAT assay, ThioGlo1 CoA-SH fluorescence. Potency, µM (top dose mostly 58.9 µM), without a hit: at the top dose activity change, negative = inhibition, hits mostly inhibitors. 390,000 compounds, 0.21% hits. AID 504327; active means well fitted inhibition curve with a large enough effect; inconclusive means small, poorly fitted or top-dose-only effect, or another doubt; inactive means no such curve, though single readings can be large or run the other way
Target sequence (Q92830 whole entry, looked up): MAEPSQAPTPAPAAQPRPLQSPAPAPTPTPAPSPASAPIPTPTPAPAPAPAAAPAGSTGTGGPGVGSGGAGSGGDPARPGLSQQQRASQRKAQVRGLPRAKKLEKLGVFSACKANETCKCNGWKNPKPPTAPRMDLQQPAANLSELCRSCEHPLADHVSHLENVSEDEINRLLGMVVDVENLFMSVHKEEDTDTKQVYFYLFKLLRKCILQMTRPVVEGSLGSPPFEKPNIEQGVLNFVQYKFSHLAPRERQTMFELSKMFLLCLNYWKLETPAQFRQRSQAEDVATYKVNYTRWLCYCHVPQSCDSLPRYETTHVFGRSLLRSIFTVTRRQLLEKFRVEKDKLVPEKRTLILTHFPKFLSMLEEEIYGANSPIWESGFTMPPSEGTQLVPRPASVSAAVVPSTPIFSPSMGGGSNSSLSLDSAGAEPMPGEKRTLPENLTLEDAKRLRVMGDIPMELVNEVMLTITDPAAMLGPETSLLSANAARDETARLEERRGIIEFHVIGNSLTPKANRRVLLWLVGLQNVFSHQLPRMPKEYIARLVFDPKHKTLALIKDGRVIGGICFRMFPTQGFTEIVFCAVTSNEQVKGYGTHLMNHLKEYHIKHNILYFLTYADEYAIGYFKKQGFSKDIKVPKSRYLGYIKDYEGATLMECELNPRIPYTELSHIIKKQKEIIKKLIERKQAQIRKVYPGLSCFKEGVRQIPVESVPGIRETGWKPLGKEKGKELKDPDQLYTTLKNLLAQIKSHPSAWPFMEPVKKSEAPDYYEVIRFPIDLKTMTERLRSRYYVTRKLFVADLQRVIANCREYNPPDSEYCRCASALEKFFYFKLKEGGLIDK
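Enzyme at 20nM final was mixed with library compounds for 15 min at room temperature. Peptide H3(1-25) at 75uM, acetyl-CoA at 70uM and ThioGlo1 at 50uM were then added. Plates were read immediately and after 20 min (Ex340nm/Em540nm).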
Active calls of the source: *; ? = inconclusive; & = joins results of further samples; [ ] = remark or other dose. On the % scale 0 is the no-effect control and ±100 the full control effect; potency means the concentration at half of the fitted maximal effect. This is a subset; most or all hits stand in other tables.

SMILES	KAT2A inh
COc1ccccc1N1CCN(C(=O)c2sc3nc(C)nc(N4CCN(c5ccccn5)CC4)c3c2C)CC1	-10%
CC(C)NC(=O)c1ccc(CSc2nc3ccncc3n2Cc2cccc(F)c2)cc1	0%
COc1ccccc1-n1c(SCC(=O)N2CCCCC2)nc(O)c(Cc2ccccc2)c1=O	?
CC(C)(C)OC(=O)N1CCC(c2c(C(=O)NCCN3CCOCC3)cnn2-c2ccc(F)cc2F)CC1	17%
Cc1ccnn1CCSCC(=O)O	0%
CN(CC1CCOCC1)C(=O)c1ccc2nc(Cc3cccc(Cl)c3)oc2c1	-3%
CCOC(=O)c1c(C)noc1CP(=O)(c1ccccc1)c1ccccc1	4%
Cc1ccc2c(C)c(C(=O)N3CCCC(C(N)=O)C3)oc2c1C (configuration not stated)	-23%
C=CCN(c1ccccc1C(=O)NCC(=O)OCC)S(=O)(=O)c1ccc(C)cc1	-2%
CCCC(C)C(=O)Nc1cccc(NC(C)=O)c1 (configuration not stated)	-1%
CCNC(=O)C(C)Oc1ccc(Cl)cc1Cl (configuration not stated)	-11%
COc1ccc(C(=O)NCc2nnc(SCC(=O)NC3=NCCS3)n2C)cc1	-6%
Cc1cc2ncn(/N=C/c3cccnc3)c2cc1C	-4%
O=C(Nc1cccnc1)c1sc2cccc(F)c2c1Cl	0%
CC(C)OC(=O)CCCNc1ccc([N+](=O)[O-])cc1[N+](=O)[O-]	31%[activator]
NS(=O)(=O)c1ccc(CCNC(=S)Nc2ccc(F)cc2)cc1	1%
COC(=O)c1cc(C(=O)OC)cc(-n2c(C)cc(C=O)c2C)c1	-4%
COc1ccc(NC(=O)C2CCCO2)cc1OC (configuration not stated)	-3%
CCOC(=O)C1CCN(c2cc3c(cc2NC(=O)c2ccccc2Cl)n(C)c(=O)n3C)CC1	?
Nc1ccc(C(=O)Nc2nccs2)cc1	-4%

Of the compounds above, these have a Cl atom.
SMILES	KAT2A inh
CN(CC1CCOCC1)C(=O)c1ccc2nc(Cc3cccc(Cl)c3)oc2c1	-3%
CCNC(=O)C(C)Oc1ccc(Cl)cc1Cl (configuration not stated)	-11%
O=C(Nc1cccnc1)c1sc2cccc(F)c2c1Cl	0%
CCOC(=O)C1CCN(c2cc3c(cc2NC(=O)c2ccccc2Cl)n(C)c(=O)n3C)CC1	?

More entries
SMILES	KAT2A inh
O=C(NCc1ccc2c(c1)OCO2)C(=O)NCC1OCCCN1S(=O)(=O)c1ccc(F)cc1 (configuration not stated)	-1%
CCN1CCN(Cc2c(O)ccc3oc(C)c(C(=O)Nc4ccc(OC)cc4)c23)CC1	4%
CCNc1ccc(S(=O)(=O)N(C)C)cc1NCC(=O)Nc1ccccc1Br	-13%
O=C(CCc1nnc(C2CCCCC2)o1)NCc1cccc(-n2cccn2)c1	-10%
CCN1CNC(=S)N(Cc2ccccc2)C1	10%
O=C(CSc1nnnn1C1CCCC1)NCc1ccc2c(c1)OCO2	-1%
COC(=O)CC1C(=O)NCCN1C(=S)Nc1ccc(F)cc1 (configuration not stated)	0%
CCCC(=O)N1CCN(c2ccc(NC(=O)c3ccc([N+](=O)[O-])o3)cc2)CC1	-10%
Cc1cc(C)nc(SC2c3cccc4cccc(c34)C2NS(=O)(=O)c2ccccc2)n1 (configuration not stated)	-9%
O=C(OCC(=O)N1CCCCCC1)c1n[nH]c(=O)c2ccccc12	-2%
Cc1ccc(NC(=O)Cc2ccc(NC(=O)N3CCCCc4ccccc43)cc2)cc1Cl	-2%
CCC(=O)Nc1ccc(S(=O)(=O)NCC2CCCO2)cc1 (configuration not stated)	0%
O=C(NCCCN1CCN(c2ccccc2F)CC1)C1CCC(=O)N1C1CCCCC1 (configuration not stated)	-4%
CCCn1c(SCC(=O)Nc2cccc(S(=O)(=O)NC3=NCCCCC3)c2)nc2ccccc2c1=O	-20%
Cc1cc(C)nc(-n2nc(C)c3c2N(Cc2ccccc2C)C(=O)CC3c2ccc(Cl)cc2)n1 (configuration not stated)	-8%
Cc1ccc(C)c(SCC(=O)NC(=O)NC2CCCC2)c1	1%
N#Cc1ccc(C23CC4(C2)[C@H](CN(Cc2ccc(C(F)(F)F)cc2)[C@@H]4c2ccccc2)C3c2ccccc2)cc1 (some centres not stated)	-7%
Cc1ccc(Cn2c(N3CCN(CCO)CC3)nc3c2c(=O)n(C)c(=O)n3C)cc1	-5%
COC(=O)c1cc(C(=O)NCC2CCCCC2)cc([N+](=O)[O-])c1	4%
CCCCNC(=O)c1cc2c(=O)n3cccc(C)c3nc2n(Cc2ccccc2)c1=N	-1%
Cc1c(C(=O)NC(c2ccccn2)C(F)(F)F)oc2c(F)cccc12 (configuration not stated)	-4%
COc1ccc(NC(=O)CCc2nc3cccnc3n2-c2ccccc2)cc1Cl	1%
O=C(Nc1ccc(C(=O)N2CCCCC2)cc1)Nc1cccc(Cl)c1	?
COc1ccc(NCCc2ccccn2)cc1	-6%
CCOc1ccccc1NS(=O)(=O)c1ccc(OC)c(OC)c1	-2%
Cc1ccc(C)n1CCN1CCN(C(=O)c2ccc(Cl)cc2)CC1	5%
Cc1ccc(-c2csc(N(CCCN(C)C)C(=O)c3ccco3)n2)cc1	4%
Cc1ccc(C(=O)CCC(=O)OCC(=O)N(C)c2c(N)n(Cc3ccccc3)c(=O)[nH]c2=O)cc1	-8%
COc1ccc(C(=O)Nc2cc(C)c(NC(=O)c3ccccn3)cn2)cc1	-3%
CCc1ccccc1NC(=O)c1ccc2snnc2c1	0%
CCC1CCCCN1C(=O)COc1cccc2c1CCN(C)C2=O (configuration not stated)	-1%
O=C(COc1cccc2cccnc12)N/N=C1\SCC(=O)N1CCc1ccccc1	-14%
Cc1noc(C)c1NC(=O)Nc1ccc2c(c1)C(=O)N([C@H](C)CO)C[C@H](C)[C@@H](CN(C)C(=O)NC1CCCCC1)O2	-4%
COc1cc(C(=O)NCC(C)C)c([N+](=O)[O-])cc1OC	-1%
CN1CCN(c2nc(-c3ccc(Cl)cc3)cc(=O)[nH]2)CC1	-1%
COc1ccc2c3c(c(=O)oc2c1OCC(N)=O)CCCC3	1%
CCn1cc(C(=O)NCc2ccc3c(c2)OCO3)c2cc(OC)c(OC)cc2c1=O	3%
CCC(C)(C(=O)NC1CCCCC1)N(Cc1ccco1)C(=O)c1ccccn1 (configuration not stated)	1%
Cc1ccc2cc(CCNC(=O)c3ccco3)c(=O)[nH]c2c1C	1%
CCSc1ccc([C@@H]2[C@H]3C(=O)N(C)C(=O)[C@H]3[C@]3(C(=O)OC)CCCCN23)cc1OC	-10%
COCc1cc(C)nc(SCC(=O)N2CCC(C)CC2)c1C#N	0%
O=C(Nc1ccnn1C1CCN(Cc2ccccc2)CC1)c1ccccc1Cl	-9%
Cc1ccc(S(=O)(=O)Nc2cccc(-n3cnnn3)c2)cc1C(=O)O	-5%
CCOC(=O)n1ccn(C)c1=S	6%[21.4 µM]
CCCCCn1c(CNC(=O)COC)nc2ccccc21	0%
CC(C)NC(=S)N1CCN(Cc2ccc3c(c2)OCO3)CC1	-1%
COc1cc2ncc3c(-c4ccc(C)cc4)nn(-c4ccc(F)cc4F)c3c2cc1OC	-13%
Cc1sc2nc(N3CCOCC3)[nH]c(=O)c2c1-c1ccccc1	-9%
Cc1ccc(S(=O)(=O)N2CCOCC2)cc1NC(=O)COc1ccccc1Cc1ccccc1	-6%
CN(C)S(=O)(=O)Oc1ccccc1C(=O)Nc1cccc(C(F)(F)F)c1	-4%
CC(=O)Nc1ccc(NC(=O)C(=O)NCC(c2ccco2)N2CCc3ccccc32)cc1 (configuration not stated)	2%
Cc1nc2ccc(S(=O)(=O)NC(CC(C)C)C(=O)O)cc2s1 (configuration not stated)	8%
O=C(Nc1ccccc1F)C(c1ccccc1)N1Cc2ccccc2C1=O (configuration not stated)	-1%
CC(NC(=O)NC12CC3CC(CC(C3)C1)C2)C1CCCO1 (configuration not stated)	-5%
Cc1sc2nc(SCC(=O)N(C)C)[nH]c(=O)c2c1C	-2%
COc1cc2ccccc2cc1C(=O)OCC(=O)N(CC(C)C)c1c(N)n(Cc2ccccc2)c(=O)[nH]c1=O	-11%
CS(=O)(=O)OCCCCOS(C)(=O)=O	-16%&20%
CCCOc1ccc(-c2cccc(NS(=O)(=O)c3cc(OC)ccc3OC)c2)nn1	-2%
CC12CC3CC(C)(C1)CC(C(=O)N1CCN(C(=O)C4CCCO4)CC1)(C3)C2 (configuration not stated)	-15%
COC(=O)c1ccc(CNC(=O)Cn2cnc3c(OCc4ccccc4)ncnc32)cc1	1%

Among those listed so far, four contain a thiophene ring, fused or not.
SMILES	KAT2A inh
COc1ccccc1N1CCN(C(=O)c2sc3nc(C)nc(N4CCN(c5ccccn5)CC4)c3c2C)CC1	-10%
O=C(Nc1cccnc1)c1sc2cccc(F)c2c1Cl	0%
Cc1sc2nc(N3CCOCC3)[nH]c(=O)c2c1-c1ccccc1	-9%
Cc1sc2nc(SCC(=O)N(C)C)[nH]c(=O)c2c1C	-2%

Next part
SMILES	KAT2A inh
Brc1ccc(CSc2ccc3nnc(-c4ccccn4)n3n2)cc1	-3%
CCN(CCNC(=O)c1cc(C)nn1-c1ccccc1)c1ccccc1	-6%
CCC1Sc2ccc(S(=O)(=O)CCC(=O)Nc3ccc(OC(F)(F)F)cc3)cc2NC1=O (configuration not stated)	-5%
Cc1c(N)cccc1[N+](=O)[O-]	-6%
CCC(=O)Nc1nc(C)c(C(=O)NC2CCCCC2)s1	5%
COc1ccccc1/C=C(\C#N)C(=O)NCC1CCCO1 (configuration not stated)	16%
Cc1cccc(C(=O)N2CCc3cc(CNC(=O)c4ccnn4C)ccc32)c1	-6%
Cn1c(CNc2ccc(Cl)cc2)nnc1SCCN1CCCCC1	-3%
CCOc1ccc2nc(Cl)c(C3CC(c4ccccc4)=NN3C(=O)c3cccs3)cc2c1 (configuration not stated)	0%
c1ccc(CNc2c3c(nc4ncnn24)CCCC3)nc1	-14%
COc1cc(C(=O)O/N=C2/C=CC(=O)C(C)=C2C)cc(OC)c1OC	-5%
Cc1oc(-c2ccccc2)nc1CNC(=O)NC1CCCCC1	-1%
COc1ccc(NC(=O)N2CCC(Cc3ccccc3)CC2)cc1	-5%
COc1ccc(C(=O)C[n+]2ccc3c(c2)nc(-c2ccc(OC)cc2OC)n3C)cc1	-7%
O=C(CSc1ccc(Cl)cc1)Nc1ccccc1N1CCN(C(=O)c2ccc(Cl)cc2)CC1	22%
COc1ccc(CNC(=O)C(C)OC(=O)C23CC4CC(CC(O)(C4)C2)C3)cc1 (configuration not stated)	-3%
Cc1nn(C)cc1NC(=O)c1cc2nc(-c3ccco3)cc(C(F)(F)F)n2n1	-3%
Cc1c(Br)c([N+](=O)[O-])nn1C(C)C(=O)Nc1c(C)n(C)n(-c2ccccc2)c1=O (configuration not stated)	?
C[C@H](CO)N1C[C@H](C)[C@@H](CN(C)S(=O)(=O)c2ccc(F)cc2)Oc2c(NC(=O)NC3CCCCC3)cccc2C1=O	-2%
CC1CN(c2nc(-c3ccccc3)nnc2-c2ccccc2)CC(C)O1 (configuration not stated)	-5%

Taken from above.
KAT2A inh with Cc1ccc2cc(CCNC(=O)c3ccco3)c(=O)[nH]c2c1C = 1%
KAT2A inh with Cc1cccc(C(=O)N2CCc3cc(CNC(=O)c4ccnn4C)ccc32)c1 = -6%

(more compounds)
SMILES	KAT2A inh
O=C1[C@@H]2C(c3cccnc3)=NO[C@@H]2C(=O)N1c1ccc(Br)cc1	-17%
CCCc1ccc(C(=O)Cn2nc(C(=O)O)c3ccccc3c2=O)cc1	-3%
CCNS(=O)(=O)c1ccc(CCC(=O)NCc2ccc(C)cc2)cc1	2%
CN(C)C(=O)CSc1nnc(-c2ccc(S(=O)(=O)N3CCCC3)cc2)n1C	-5%
CCOC(=O)CSc1nnc(NC(=O)c2ccco2)s1	-6%
CCc1ccc(NC(=O)c2cc3nc(-c4ccc(C)cc4)cc(C(F)(F)F)n3n2)cc1	0%
O=C(Nc1c(C(=O)N2CCOCC2)cnn1-c1ccccc1)c1ccc(F)cc1	-6%
COc1ccc(Br)cc1CNC(=O)c1ccc2c(c1)nc1n2CCC(C)C1 (configuration not stated)	3%
NC(=O)CC(NC(=O)c1ccccc1)c1ccc(NCCOc2ccccc2)c([N+](=O)[O-])c1 (configuration not stated)	-2%
N#Cc1ccc(OC(=O)c2cc(-c3ccc(Cl)cc3)on2)cc1	-12%
COCc1c(CCl)cnc(C)c1O	1%
Cc1cc(C)c2sc(NC(=O)c3ccc(S(=O)(=O)N4CCCC4)cc3)nc2c1	-8%
COc1ccc(OC(C)C(=O)N2CCOCC2)cc1 (configuration not stated)	-7%
O=C(COC(=O)/C=C/c1ccc2c(c1)OCO2)NCc1ccccc1	-1%
CC(=O)c1cccc(N/C=C\c2nnnn2-c2ccc(F)cc2)c1	2%
Clc1ccc(Cn2ncc3c(NCCN4CCOCC4)ncnc32)cc1	3%
O=[N+]([O-])c1ccccc1OCC(O)CNC1CCCC1 (configuration not stated)	16%
Cc1ccc(SCC(=O)NCC(C)C)cc1	-10%
CCOC(=O)c1cc(-c2ccc(Cl)cc2)nc2c1c(=O)[nH]c(=O)n2CCOC	-2%
COc1ccc(N2C(=O)CC(N(CCc3ccc(OC)c(OC)c3)C(=S)Nc3ccccc3)C2=O)cc1 (configuration not stated)	10%
CCN(CC)C(=O)CSc1nc2cc3c(cc2c(=O)n1Cc1ccc2c(c1)OCO2)OCO3	-7%
O=C(NCCN1CCNC1=O)C1CCC(=O)N(Cc2ccccc2F)C1 (configuration not stated)	1%

4 entries from above, in CSV form.
structure,KAT2A inh
Cc1cc(C)c2sc(NC(=O)c3ccc(S(=O)(=O)N4CCCC4)cc3)nc2c1,-8%
COCc1c(CCl)cnc(C)c1O,1%
COc1ccc(N2C(=O)CC(N(CCc3ccc(OC)c(OC)c3)C(=S)Nc3ccccc3)C2=O)cc1 (configuration not stated),10%
CCc1ccc(NC(=O)c2cc3nc(-c4ccc(C)cc4)cc(C(F)(F)F)n3n2)cc1,0%
